Marburg entry: inhibitors of Marburg virus binding or entry into cells | Marburg virus pseudotype entry/binding inhibition, cell-based; control for the full effect not named in the record; many of its hits are not listed in these tables | Potency, µM (series often up to 49.2 µM), for the others: at the top dose activity change, negative = inhibition, most hits filed as inhibitors | 18,000 compounds, 6.5% hits | AID 720532; active means well fitted inhibition curve with a large enough effect; inconclusive means small, poorly fitted or top-dose-only effect; inactive means no such curve, though single readings can be large or run the other way; tested in HEK293 cells; further: luciferase read-out
LASV entry inh: blocks Lassa virus binding or cell entry; Lassa virus pseudotyped entry inhibition, cell-based qHTS; control for the full effect not named in the record; many of its hits are not listed in these tables; Potency, µM (highest dose often 49.2 µM), without a hit: at the highest dose activity change, negative = inhibition, most hits filed as inhibitors; 18,000 compounds, 4.1% hits; AID 720533; active = well fitted inhibition curve with a large enough effect; inconclusive = small, poorly fitted or top-dose-only effect; inactive = no such curve, though single readings can be large or run the other way; tested in HEK293 cells; further: luciferase read-out
An asterisk follows results filed as active; ? = inconclusive; nt = no result given; & = joins results of further samples; [ ] = dose if it differs, or a comment. On the % scale 0 is the no-effect control and ±100 the full control effect; potency means the concentration at half of the fitted maximal effect. These rows are one share of the data; the hit share may differ from the screen's.

| Compound | Marburg entry | LASV entry inh |
| --- | --- | --- |
| CC(C)(C)NCC(O)c1ccc(O)c(CO)c1 (stereo not given) | 13%&10%&12% | -4%&4%&-5% |
| O=c1c(-c2cc(O)c(O)c(O)c2)coc2cc(O)c(O)c(O)c12 | ? | -1% |
| COc1cc2c(cc1O)C[C@H]1c3c(cc(O)c(OC)c3-2)CCN1C | 20%[17.8 µM] | 15%[17.8 µM] |
| CO/N=C(/C(=O)N[C@H]1C(=O)N2C(C(=O)O)=C(COC(C)=O)CSC12)c1csc(N)n1 (stereo not given in full) | 28% | 0% |
| N#CN | -11% | 3% |
| N#Cc1ccc2c(c1)C[C@]1(CCCCN3C(=O)c4ccccc4C3=O)Oc3c(c(=O)oc4ccccc34)[C@H]2O1 | ? | 10%[8.59 µM] |
| CC1(OC(=O)C2CCCC2)C(=O)C=C2C=C(c3ccc(C#N)cc3)OC=C2C1=O (stereo not given) | 1% | 0% |
| C=CCCCCCCCCC(=O)O | 16% | -10% |
| C[C@H]1[C@@H](c2ccccc2)Oc2c(Cl)cccc2S(=O)(=O)N1Cc1ccc(F)cc1 | ? | 14% |
| NCCCCCCNS(=O)(=O)c1cccc2ccccc12 | 9% | ? |
| COc1ccc2c(c1)-c1nc(-n3ncc(C(=O)NC(C)(C)CO)c3C3CC3)ncc1CC2 | 81%[activator] | 5% |
| CC(C)[C@@H](CO)NS(=O)(=O)c1ccc(Br)cc1F | 23% | -9% |
| FC(F)(F)c1ccccc1-c1nc(Nc2ccncc2)c2ccccc2n1 | -26% | -16% |
| c1ccc(C2NCCc3c2[nH]c2ccccc32)cc1 (stereo not given) | 23%[8.59 µM] | 14%[8.59 µM] |
| O=C(/C=C/c1ccc(O)cc1)OC[C@H]1O[C@@H](Oc2c(-c3ccc(O)cc3)oc3cc(O)cc(O)c3c2=O)[C@H](O)[C@@H](O)[C@@H]1O | -2% | -3% |
| Cc1ccc(Cl)c(O)c1 | 3% | -9% |
| Cc1ccccc1C1(CC(=O)N2CC3CC4CC(C3)CC2C4)CC(=O)N(Cc2cccnc2)C1=O (stereo not given) | -12% | -5% |
| CCCCC/C=C\C/C=C\CCCCCCCCCC(=O)NCCCC(=O)O | 2% | 3% |
| CCCC[C@]12Cc3cc(OC)c(OC)cc3[C@H](O1)C1=C(O2)C(=O)c2ccccc2C1=O | 5%[8.59 µM] | 5%[8.59 µM] |
| COCC(=O)Nc1cc(C(=O)N2CCOc3ccccc3C2)cc2nc(-c3cccnc3)n(C)c12 | 8% | 3% |
| CCCC(CCC)C(=O)OC1C[C@H]2CC[C@@H](C1)[N+]2(C)C (stereo not given in full) | 16%&-5% | -18%&-8% |
| CC1(C)CC2C1CC[C@]1(C)CCC3C(C(=O)O)CC(=O)O[C@]32C1 (stereo not given in full) | -12% | ? |
| COc1cccc([C@@H]2Oc3ccc(OC)cc3C(=O)[C@H]2O)c1 | 73%[activator] | 58%[activator] |
| CCCN(CCc1cccs1)[C@H]1CCc2c(O)cccc2C1 | ? | ? |
| O=C(c1cccs1)N1C[C@H](O)[C@H](n2cc(C3CC3)nn2)C[C@@H]1c1ccc(Cl)cc1 | 21% | nt |
| CCCCC/C=C\C/C=C\CCCCCCCCCC(N)=O | -10% | 1% |
| NC(=O)c1ccc[n+]([C@@H]2OC(COP(=O)([O-])OP(=O)(O)OCC3OC(n4cnc5c(N)ncnc54)C(OP(=O)(O)O)C3O)C(O)C2O)c1 (stereo not given in full) | -5% | -7% |
| COc1ccc2c(c1OC)OCC(c1ccc(OC)c(OC)c1OC)C2 (stereo not given) | 9% | -3% |
| C=C1C(C2(C)C=CC(=O)C(C)(C)C2CC(=O)OC)CC[C@@]2(C)C(c3ccoc3)OC(=O)C3OC132 (stereo not given in full) | -10% | -4% |
| COc1ccc([C@@H]2CC(=O)c3c(O)cc(O)cc3O2)cc1O | 34%[activator] | 41%[activator] |
| COCOCCn1cc(CN2CCS(=O)(=O)N(Cc3ccc(-c4ccc(C)cc4)cc3)C(C)C2=O)nn1 (stereo not given) | ? | 4% |
| C[C@@H]1[C@@H](c2ccccc2)Oc2c(Cl)cccc2S(=O)(=O)N1Cc1cccc(Cl)c1 | 16% | -10% |
| NCC(=O)N[C@@H](CCCN=C(N)N)C(=O)NCC(=O)N[C@@H](CCC(=O)O)C(=O)N[C@@H](CO)C(=O)O | -4% | 4% |
| COc1ccc2[nH]cc(CCN(C(C)C)C(C)C)c2c1 | ? | -3%[107 µM] |
| Cc1c(C(=O)N(CCO)C(C)C)cnn1-c1ncc2c(n1)-c1ccccc1CCC2 | -1% | -7% |
| CC[C@H](C)[C@H](NC(=O)[C@H](CCCN=C(N)N)NC(=O)[C@H](CCCN=C(N)N)NC(=O)[C@H](CC(C)C)NC(=O)[C@H](Cc1ccccc1)NC(=O)CNC(=O)CNC(=O)[C@@H](N)Cc1ccc(O)cc1)C(=O)O | 11% | -19% |
| NS(=O)(=O)c1cc2c(cc1Cl)NC(CC1CCCC1)NS2(=O)=O (stereo not given) | -29%[17.8 µM] | -26%[17.8 µM] |
| NC(=O)[C@@H]1CCCN1 | 5% | 4% |
| CCOC(=O)CNC(=O)O[C@H]1C(=O)c2ccc(OC)cc2O[C@@H]1c1ccc2c(c1)OCO2 | 2% | 29% |
| CN1CCC(OC(=O)C(Oc2ccc(Cl)cc2)Oc2ccc(Cl)cc2)CC1 | 6% | -26% |
| COc1cc2c(c(OC)c1OC)C(c1ccc(O)cc1)CC(=O)O2 (stereo not given) | 3% | -8% |
| COc1ccc(CN(CC(O)COCc2ccccc2)S(=O)(=O)c2ccccc2Br)cc1 (stereo not given) | ? | nt |
| CC(=O)N[C@@H](CC(=O)O)C(=O)O | 11%[17.8 µM] | 0%[17.8 µM] |
| COC(=O)CC=C1c2ccc3c(c2[C@@H](OC)[C@@H]1C)OCO3 | -6%[8.59 µM] | -2%&7%[8.59 µM] |
| COc1cccc([C@@H]2Oc3ccc(Br)cc3C(=O)[C@H]2O)c1 | -4% | 16% |
| O=C1Nc2ccc(I)cc2C1=Cc1cc(Br)c(O)c(Br)c1 | ? | 9% |
| COC(=O)c1c(OCc2cccnc2)cc(=O)n2c1CCN(C(=O)c1cccc(N(C)C)c1)CC2 | -22% | 4% |
| CN(Cc1ccco1)c1ncnc2ccc(-c3cccnc3)cc12 | -1% | 3% |
| CO[C@]1(NC(=O)C(C(=O)O)c2ccc(O)cc2)C(=O)N2C(C(=O)O)=C(CSc3nnnn3C)COC21 (stereo not given in full) | 9% | 5% |
| CCN1C(=NCCCCO)NC(c2cccc(C(F)(F)F)c2)C(C(=O)OC)=C1C (stereo not given) | -19%[8.59 µM] | 14%[8.59 µM] |
| CC(C)c1ccc2c(c1)c(SC(C)(C)C)c(CC(C)(C)C(=O)O)n2Cc1ccc(Cl)cc1 | ? | 25µM* |
| CC(C)(C)NCC(O)COc1ccc(NC(=O)NC2CCCCC2)cc1 (stereo not given) | -9% | -10% |
| Cc1nc(C)n(CC(=O)NCC2Cc3cc(-c4cccc(OC(F)(F)F)c4)ccc3O2)n1 (stereo not given) | 2% | -19% |
| COc1ccc2c(c1OC)C(=O)O[C@@H]2[C@H]1c2c(cc3c(c2OC)OCO3)CCN1C | ? | -15% |
| COc1ccccc1-c1ccnc(-n2ncc(C(=O)N(C)CCc3ccccn3)c2C)n1 | ? | -15% |
| CCN(CC)C1CCN(C(=O)c2cnn(-c3nccc(-c4ccccc4OC)n3)c2-c2ccco2)C1 (stereo not given) | -10% | -8% |
| COc1ccc(CCNC[C@H](O)c2ccc(O)cc2)cc1OC | 3% | -26% |
| CN(C(=O)CO)c1c(I)c(C(=O)NCC(O)CO)c(I)c(C(=O)NCC(O)CO)c1I (stereo not given) | 14% | -9% |
| C=CC[C@@H]1C=C[C@@H](ON=C2[C@H]3CCn4c(=O)n(-c5ccccc5)c(=O)n4[C@@H]3[C@H](O)[C@@H]3O[C@H]23)[C@@H](CO)O1 | -22%[8.59 µM] | -5%[8.59 µM] |
| O=S1(=O)C[C@@H](N2CCN(c3ccccc3)CC2)[C@H](COCc2ccccc2)N1 | 26% | -13% |

The results go on.
| Compound | Marburg entry | LASV entry inh |
| --- | --- | --- |
| COC(=O)[C@@H]1CC2=CC(=O)CC[C@]2(C)[C@@]23O[C@@H]2C[C@@]2(C)[C@H](CC[C@@]24CCC(=O)O4)[C@@H]13 | 4% | -11% |
| Cc1cc2nc3c(=O)[nH]c(=O)nc-3n(C)c2cc1C=O | ? | ? |
| COc1cccc([C@H]2Oc3ccc(OC)cc3C(=NO[C@H](C)c3cn([C@H](CO)Cc4ccccc4)nn3)[C@H]2O)c1 | 41%[activator][8.59 µM] | 8%[8.59 µM] |
| CN1CCN(c2ccnc(-c3ccccc3C(F)(F)F)n2)CC1 | -24% | 4% |
| Cc1c(S(=O)(=O)O)oc2c1C(=O)C(=O)c1c-2ccc2c1CCCC2(C)C | 1% | 4% |
| COC1=C[C@H](C(=O)NC2CCN(Cc3ccccc3)CC2)[C@H](C)[C@@H](c2ccccc2)CC1=O | 9%[8.59 µM] | 18%[8.59 µM] |
| CCCCC/C=C\C/C=C\C/C=C\C/C=C\CCCC(=O)OC(CO)CO | -1%&6%&12% | -15%&-5%&-1% |
| CC[C@H](C)[C@H](NC(=O)[C@H](CO)NC(=O)[C@H](C)NC(=O)[C@H](C)NC(=O)[C@H](CCC(N)=O)NC(=O)[C@H](CCCCN)NC(=O)[C@H](CCCN=C(N)N)NC(=O)[C@@H](N)CS)C(=O)N[C@@H](CCCCN)C(=O)N[C@H](C(=O)N[C@@H](C)C(=O)N[C@H](C(=O)N[C@@H](CO)C(=O)O)C(C)C)C(C)C | -1% | -5% |
| Cc1ccc([C@H]2C[C@H](O)[C@@H](n3cc(COC(=O)c4ccccc4)nn3)CN2Cc2cccs2)cc1 | -56% | -63% |
| FC(F)(F)C(F)(F)C(F)(F)C(F)(F)C(F)(F)C(F)(F)C(F)(F)C(F)(F)Br | 12% | -2% |
| CCCNC(C)(C)COC(=O)c1ccccc1 | 13% | -12%[17.8 µM] |
| O=C(NCC1Cc2cccc(-c3nccs3)c2O1)c1ccnc(Cl)c1 (stereo not given) | -10% | 11% |
| OC[C@H]1O[C@H](C#Cc2ccccc2)C=C[C@@H]1O | 2%[8.59 µM] | 0%[8.59 µM] |
| CCN1C(=O)[C@@H]2[C@H]3[C@H](O)[C@H](O)CC(=NO[C@@H](C)c4cc(-c5c(C)cc(C)cc5C)no4)[C@@H]3CC[C@H]2C1=O | -13%[8.59 µM] | -2%[8.59 µM] |
| Cc1cccc(CNC(=O)c2cnn(-c3ncc(C)c(-c4cccs4)n3)c2C2CC2)n1 | 6% | -10% |
| Cc1cnc(CNC(=O)c2c3n(c(C)cc2=O)-c2ccccc2SC(c2ccsc2)C3)cn1 (stereo not given) | 4% | -12% |
| O=[S+]1([O-])N[C@@H]2Cc3ccccc3[C@@H]2Oc2cc(Br)ccc21 | -15% | -16% |
| c1csc(CNc2ncncc2-c2ccc3c(c2)OCO3)c1 | -12% | -13% |
| Fc1ccc(-c2ncn(C3CCNCC3)c2-c2ccnc(Oc3ccc(F)c(F)c3)n2)cc1 | 3.5µM* | ? |
| C#CCN1C(=O)CC[C@@]23C1=NC(C(=O)OC)=C(C(=O)OC)[C@@H]2N(CC=C(C)C)c1ccccc13 | 15%&13%[8.59 µM] | nt |
| O=C1C=C2C=C[C@@H]3C[C@@]2(O1)[C@H]1CCCCN31 | 14µM* | ? |
| O=C1C=CC(=O)C(Cl)=C1 | 3% | 8% |
| Cc1cc2c(c(-c3cnccn3)c1)OC(CNC(=O)c1ccc(-n3nc(C)cc3C)cc1)C2 (stereo not given) | -4% | 1% |
| COc1ccc(/C(=C\C(=O)O)c2nccc3cc(OC)c(OC)cc23)cc1OC | 0% | -6% |
| COc1ccc(/C=C/C(=O)N2CC3C[C@@H](C2)Cn2c3cccc2=O)cc1OC | 4% | -2% |
| O=C(O)c1ccc2[nH]cc(CCCCN3CC=C(c4ccccc4)CC3)c2c1 | ? | -4% |
| O=C(O)[C@H]1O[C@@H](Oc2ccc3ccc(=O)oc3c2)[C@H](O)[C@@H](O)[C@@H]1O | 3% | 0% |
| C#CCCCCCCCCCCCc1ccco1 | 7% | -7% |
| C#CCCOC(=O)N1C2=NC3=C(C(=O)N(Cc4ccc5c(c4)OCO5)C3=O)C3N(C)c4ccccc4[C@]23C[C@H]1CO (stereo not given in full) | -23%[8.59 µM] | nt |
| Cc1c(C(=O)NC(C)(C)C)sc2ncnc(NCCN(C)C)c12 | -23% | -7% |
| C=CCN1C(=O)CC[C@@]23C1=NC(C(=O)OC)=C(C(=O)OC)[C@@H]2N(CC=C)c1ccccc13 | -3%[8.59 µM] | -9%[8.59 µM] |
| CCCOc1ccc2[nH]cc(C3=CCNCC3)c2n1 | ? | ? |
| CC(C)(C)C(=O)Oc1ccc(S(=O)(=O)Nc2ccccc2C(=O)NCC(=O)O)cc1 | 13% | -2% |
| CSCC[C@H](NC(=O)[C@H](Cc1ccccc1)NC(=O)CNC(=O)CNC(=O)[C@@H](N)Cc1ccc(O)cc1)C(=O)O | 14% | -5% |
| CC(=O)OCOC(=O)CNc1ccccc1OCCOc1ccccc1NCC(=O)OCOC(C)=O | ? | -29% |
| COC(=O)[C@H]1[C@@H](OC(=O)c2ccccc2)C[C@@H]2CC[C@H]1N2C | -8% | 0% |

Among those listed so far, 2 have an aryl thioether with sulfur outside any ring.
| Compound | Marburg entry | LASV entry inh |
| --- | --- | --- |
| CO[C@]1(NC(=O)C(C(=O)O)c2ccc(O)cc2)C(=O)N2C(C(=O)O)=C(CSc3nnnn3C)COC21 (stereo not given in full) | 9% | 5% |
| CC(C)c1ccc2c(c1)c(SC(C)(C)C)c(CC(C)(C)C(=O)O)n2Cc1ccc(Cl)cc1 | ? | 25µM* |
